H5N1 CPE: antiviral screen in MDCK cells, H5N1 avian flu; cytopathic effect, luminescence, 72 h; hits give high values; no value below 0 was filed and about half of the inactive calls have no number; reference of the scale not given here; inhibition, % at 50 µM; 0.07% of 96,000 active; in the data active means inhibition above about 25%
* marks the source's active call; other numbers are inactive results; i = inactive. Not all compounds are listed, so the mix of outcomes need not match the whole.

SMILES	H5N1 CPE
C=C(C)CSc1nnc2n(N)c(=O)c3ccccc3n12	0.8
Cc1c(C(=O)OCC(=O)N2c3ccccc3CC2C)oc2ccccc12 (stereo unspecified)	i
Cc1ccc(S(=O)(=O)c2cc3c(=O)n4ccccc4nc3n(Cc3ccco3)c2=N)cc1	0.4
CNC(=O)CC(=O)Nc1ccccc1C(=O)O	i
Cc1ccc(C)c(OCC(O)CN2CCCCC2C)c1 (stereo unspecified)	i
CCCCn1c(SCc2ncc(-c3ccccc3)o2)nc2cc(S(N)(=O)=O)ccc21	2.3
CCCOc1ccc(C(CC(=O)O)NC(=O)c2ccc3c(c2)OCO3)cc1 (stereo unspecified)	1.6
CCOC(=O)/C=C(\C)Nc1cc(C)nn1-c1ccccc1	0.0
Cn1c(Cc2cccc3ccccc23)nnc1SCC(=O)N1CCN(c2cccc(Cl)c2)CC1	i
COc1cccc(-c2cc(C(F)(F)F)nc(N3CCCCC3)n2)c1	i
CCOC(=O)N1CCN(C(=O)c2cc(-c3ccc(OCC)cc3)nc3ccccc23)CC1	i
Cc1cc(C=C2C(=O)c3ccccc3C2=O)c(C)n1-c1ccccc1	i
COCCNC(=O)c1cc(-c2cccs2)on1	i
Cn1c(SCC(=O)c2ccccc2)nnc1-c1ccc(O)cc1	0.3
CC(=O)c1c(C)n(CC(=O)NCc2ccc3c(c2)OCO3)c2ccccc12	0.5
CC(C)Cn1c(N)c(C(=O)COC(=O)c2ccc3c(c2)OCCO3)c(=O)n(C)c1=O	0.1
O=c1c2cnn(-c3ccccc3Cl)c2ncn1Cc1cccnc1	i
CNC(=O)Oc1ccc2c(c1)C(=O)c1ccccc1CO2	0.8
O=C(CNS(=O)(=O)c1ccccc1)NCc1ccccn1	i
O=C(CC1Sc2ccccc2NC1=O)Nc1cccc(-c2nnc3n2CCCCC3)c1 (stereo unspecified)	i

By substructure: those above with a carbonyl joined to an NH by a bond outside any ring (7)
SMILES	H5N1 CPE
CNC(=O)CC(=O)Nc1ccccc1C(=O)O	i
CCCOc1ccc(C(CC(=O)O)NC(=O)c2ccc3c(c2)OCO3)cc1 (stereo unspecified)	1.6
COCCNC(=O)c1cc(-c2cccs2)on1	i
CC(=O)c1c(C)n(CC(=O)NCc2ccc3c(c2)OCO3)c2ccccc12	0.5
CNC(=O)Oc1ccc2c(c1)C(=O)c1ccccc1CO2	0.8
O=C(CNS(=O)(=O)c1ccccc1)NCc1ccccn1	i
O=C(CC1Sc2ccccc2NC1=O)Nc1cccc(-c2nnc3n2CCCCC3)c1 (stereo unspecified)	i

More records
SMILES	H5N1 CPE
CC1(C)CC(O)(CNCc2ccc3c(c2)OCO3)CCO1 (stereo unspecified)	i
O=C(CCc1nc2ccccc2c(=O)[nH]1)NCc1cccc(Cl)c1	i
Cc1ccc(C(=O)Nc2cccnc2)cc1NC(=O)c1ccco1	1.2
CCOC1=NC(C(=O)O)c2ccccc2/C(=C(/C)Cl)N1 (stereo unspecified)	0.4
C=CCN1C(=O)C2C(C(=O)NC)C3C=CC2(O3)C1C(=O)NCc1ccc(OC)cc1 (stereo unspecified)	i
Cc1ccc(CNC(=O)COc2ccc(S(=O)(=O)NC(C)C)cc2)cc1	i
COC(=O)NNC(=O)COc1ccc(Cl)cc1	0.2
CCc1ccc2c(CN3CCN(S(=O)(=O)c4ccc5c(c4)OCCO5)CC3)cc(=O)oc2c1	1.6
Cc1ccc(NC2CC(=O)N(c3ccc(N4CCCCC4)cc3)C2=O)cc1 (stereo unspecified)	i
CSc1ncc(Cl)c(C(=O)Nc2nnc(SC/C=C/c3ccccc3)s2)n1	i
O=C(Nc1ccccc1)N1CCOCC1	i
Cc1cc(O)ccc1-c1cnc2ccccc2n1	6.1
Cc1ccc(CS(=O)(=O)Cc2ccc(C(=O)NCc3cccnc3)o2)cc1	0.7
COc1ccc(CCNc2nnc(Sc3nnnn3-c3ccccc3)s2)cc1OC	i
O=C(Nc1cccc(-n2cnnn2)c1)c1ccco1	0.4
CCc1ccccc1S(=O)(=O)Cc1ccc(C(=O)N2CCN(c3ccccn3)CC2)o1	0.3
Cc1cc(=O)[nH]c(SCc2cccc(F)c2)n1	0.0
COc1ccc(Cn2c(=O)sc3ccccc32)cc1	0.8
CCCC(C(=O)NC1CCCC1)N(Cc1cccs1)C(=O)c1snc(C(N)=O)c1N (stereo unspecified)	0.4
COc1ccccc1C(=O)n1nc(-c2ccccc2)nc1NCc1ccco1	i
COc1ccc(NC(=O)Nc2cc(C)ccc2OC(F)F)c(OC)c1	i
CCOC(=O)N1CCN(C(=O)c2cccc(-n3c(=S)[nH]c4cc(Cl)ccc4c3=O)c2)CC1	1.7
CCOc1ccc2nc(SCC(=O)N3CCCCCC3)c(C#N)cc2c1	1.9
O=C(NCc1cccnc1)NC1CCCCC1	1.2
COc1ccc(C)cc1NC(=O)CSc1nnc(CC(=O)Nc2ccccc2C)n1C	i
COc1ccc(NS(=O)(=O)c2c(C)cc(C)cc2C)cc1	i
COc1ccc(C2C(C(=O)N3CCN(c4ccccn4)CC3)CC(=O)N2c2ccc(OC)cc2)cc1 (stereo unspecified)	i
O=C(c1ccccc1C(=O)N1CCN(c2ccccc2F)CC1)N1CCN(c2ccccc2F)CC1	0.6
CCOC(=O)c1cnc(SC)nc1Sc1ccc(Cl)cc1Cl	1.0
Cc1ccc(S(=O)(=O)N(CC(=O)N2CCc3ccccc3C2)c2cccc(Cl)c2)cc1	1.1
CC(=O)Nc1ccc(S(=O)(=O)N2CCC(c3nc4ccc(C)cc4[nH]3)CC2)cc1	i
N#Cc1cc(-c2ccccc2)oc1NC(=O)c1ccccc1	i
COc1cccc(NC(=O)Cc2ccccc2)c1	i
Cn1c(=O)c2c(SCC(=O)N3CCOCC3)nc(C3CC3)nc2n(C)c1=O	1.7
O=C1C2C3C=CC(CO)(O3)C2C(=O)N1c1ccccc1-c1ccccc1 (stereo unspecified)	1.3
S=C(c1ccc2c(c1)OCO2)N1CCCC1	0.8
O=C(NC(NC1CCS(=O)(=O)C1)C(=O)c1ccccc1)c1ccc(Cl)cc1 (stereo unspecified)	0.6
N#CCCn1cc(/C=N/O)c(-c2ccc(-c3ccccc3)cc2)n1	0.4
CN(C(=O)CN1C(=O)c2ccccc2S1(=O)=O)c1ccccc1C(=O)O	i
COc1cccc(C2NC(=O)c3ccccc3O2)c1OC (stereo unspecified)	i
S=C(c1ccc(-c2ccc(Cl)c(Cl)c2)o1)N1CCOCC1	i
CCn1c(SCC(=O)Nc2nc(-c3ccccc3)cs2)nnc1-c1ccccc1O	i
COCCn1nnnc1C(C(C)C)N(Cc1cccnc1)Cc1ccccc1Cl (stereo unspecified)	1.5
COc1ccc2c(Cl)c(C(=O)NCCCn3ccnc3)sc2c1	i
CCN(C(=O)c1ccco1)c1nc(CC(=O)Nc2ccc(Cl)cc2)cs1	i
CCn1c(Cc2ccccc2)nnc1SCC(=O)Nc1ccc(S(N)(=O)=O)cc1	0.1
CCn1c2ccccc2c2cc(N)ccc21	i
Cc1cccc(NC(=O)Cn2nnc(C(=O)NCc3cccs3)c2N)c1C	i
COc1ccc(CCNC(=O)CCN2C(=O)C(C)Oc3ccc(C)cc32)cc1OC (stereo unspecified)	i
CCCS(=O)(=O)N1CCC(C(=O)NCCCN(C)Cc2ccccc2)CC1	i
Next section.
SMILES	H5N1 CPE
COC(=O)C1C(=O)C2=C(CC1C)NC(C)=C(C(=O)OC(C)C)C2c1ccc(OC)c(O)c1 (stereo unspecified)	i
CCN(CC)c1nc(SCC(=O)O)nc(N(CC)CC)n1	i
COc1ccc(S(=O)(=O)N2CCC(C(=O)Nc3cccc(Cl)c3)CC2)cc1OC	i
COc1cccc(NC(=O)c2cccs2)c1	2.1
O=C(CN1CCN(CC(=O)Nc2ccccc2Cl)CC1)Nc1ccc2c(c1)OCCO2	i
Cc1cccc(NC(=O)C2CCN(S(=O)(=O)c3cccc4nsnc34)CC2)n1	0.5
Cc1ccc(-n2ncc3c(=O)n(-c4ccc(C)c(C)c4)c(-c4ccco4)nc32)cc1	i
Brc1ccc2ncnc(NCc3ccccc3)c2c1	i
O=C(COc1ccc(Cl)cc1Cl)Nc1nc2n(n1)C(c1ccccc1)CC(=O)N2 (stereo unspecified)	i
Cc1cc(C)c(NC(=O)CN2C(=O)NC3(CCCCC3)C2=O)c(C)c1	i

At a glance, some entries already given:
SMILES	H5N1 CPE
COC(=O)C1C(=O)C2=C(CC1C)NC(C)=C(C(=O)OC(C)C)C2c1ccc(OC)c(O)c1 (stereo unspecified)	i
CCN(CC)c1nc(SCC(=O)O)nc(N(CC)CC)n1	i
COc1ccc(S(=O)(=O)N2CCC(C(=O)Nc3cccc(Cl)c3)CC2)cc1OC	i
COc1cccc(NC(=O)c2cccs2)c1	2.1

Next section.
SMILES	H5N1 CPE
COC(=O)c1cn(NC(=O)C2CCC(C)CC2)c(=O)c2ccccc12 (stereo unspecified)	i
CC(=O)c1c(C)n([O-])c2cc(C)ccc2[n+]1=O	0.6
COCCCNC(=O)c1ccc(C(=O)NCCCOC)cc1	i
CCOc1ccc(-n2c(SCC(=O)NC(C)CC)nc3n[nH]c(C)c3c2=N)cc1 (stereo unspecified)	i
CSC1=C(C#N)C(c2ccc(C)s2)CC(=O)N1 (stereo unspecified)	0.1
C#CCOC(=O)CCC(=O)Nc1cc(OC)nc(OC)n1	i
O=C(c1ccco1)N1CCN(C2=NS(=O)(=O)c3ccccc32)CC1	1.7
O=C(/C=C/Sc1ccccc1)c1ccc(Cl)cc1	i
Cc1ccc(S(=O)(=O)c2nc(NCCCn3ccnc3)sc2Cl)cc1	i
CC(C)COCC1CC2(CC(C)(c3csc(N)n3)OC2=O)C(=O)O1 (stereo unspecified)	i
CS(=O)(=O)N(Cc1ccc(C(=O)NCc2ccco2)cc1)c1ccccc1	0.4
CCOC(=O)C1CCN(S(=O)(=O)c2cccc(-c3cn4cccnc4n3)c2)CC1	3.4
O=Cc1cccc(OC(=O)c2ccc(Cl)cc2Cl)c1	0.2
Cc1cc(-c2ccccc2)n2nc(C)c(-c3ccccc3)c2n1	i
O=C(NCCCCc1ccccc1)C12CN(Cc3ccccc3)CC1C(c1ccc([N+](=O)[O-])cc1)=NO2 (stereo unspecified)	i
CCOC(=O)N1CCN(Cc2nc(N)nc(Nc3ccc(OC)cc3)n2)CC1	0.1
CCOC(=O)C(Sc1nnc2c3ccccc3n(CC)c2n1)C(=O)OCC	0.3
COc1ccccc1-c1cc(C(=O)NCc2ccco2)no1	i
COC(=O)Cc1cc(=O)n2[nH]c(C)nc2n1	0.8
CCCc1nnc(NC(=O)CCC(=O)O)s1	1.8
CC1(C)CC(=O)C(C=NCCCN2CCCC2=O)=C(O)C1	i
COc1ccc(NC(=O)CCC2COc3ccccc3O2)c(OC)c1 (stereo unspecified)	0.6
O=C(COc1ccc(-n2cnnn2)cc1)NC(=O)NCc1ccccc1	i
O=C1Nc2cc(Cl)c(Cl)cc2N(O)N1c1cc(Cl)cc(Cl)c1	i
Cc1ccc(C)c(OCC(=O)Nc2ccc3c(c2)OCO3)c1	0.5
COc1ccc(N2CCN(C(c3cccs3)C(C)NS(=O)(=O)c3ccccc3)CC2)cc1 (stereo unspecified)	i
CCOC(=O)c1ccccc1NC(=O)CSc1nnc(COc2ccccc2C)n1C	0.8
COc1cccc(Cn2cnc3c(NS(=O)(=O)c4ccc(Cl)cc4Cl)c(C)c(C)cc32)c1	0.5
COCc1cc(=O)n2[nH]c(-c3ccc(C)cc3)cc2n1	1.3
O=c1c(C=Nc2ccc(Cl)cc2)c[nH]n1-c1cccc(Cl)n1	i

In another format: entries from further up.
Structure,H5N1 CPE
O=c1c(C=Nc2ccc(Cl)cc2)c[nH]n1-c1cccc(Cl)n1,i
COc1cccc(Cn2cnc3c(NS(=O)(=O)c4ccc(Cl)cc4Cl)c(C)c(C)cc32)c1,0.5
Cc1ccc(C)c(OCC(=O)Nc2ccc3c(c2)OCO3)c1,0.5
O=C(COc1ccc(-n2cnnn2)cc1)NC(=O)NCc1ccccc1,i
CCOC(=O)c1ccccc1NC(=O)CSc1nnc(COc2ccccc2C)n1C,0.8

Additional results
SMILES	H5N1 CPE
CC1(C)NC(=O)N(CC(O)COc2cc3ccccc3cc2C(=O)N2CCCCC2)C1=O (stereo unspecified)	i
CCOc1ccc(NC(=O)CSc2nnc(-c3ccccn3)n2C)cc1	i
O=C(Nc1ccccc1)N(Cc1ccc(Cl)cc1)CC(O)C(F)(F)F (stereo unspecified)	i
CCOCCCn1c(N)c(C(=O)Nc2sc3c(c2C(=O)OC)CCCC3)c2nc3ccccc3nc21	i
COc1ccc(Cc2nnc(NC(=O)c3ccco3)s2)cc1	1.6
Cc1ccc(-c2csc(N/N=C/c3ccco3)n2)cc1	i
CCOc1cc2[nH]c(=S)n(CCN3CCC(C)CC3)c(=O)c2cc1OCC	7.3
Nc1nc(CSc2nnnn2-c2ccc(Cl)cc2)nc(N2CCOCC2)n1	i
COc1ccc(-c2csc(NCc3ccco3)n2)cc1C	i
CN(C)c1ccc(-c2nnn(CC(=O)N3c4ccccc4CCc4ccccc43)n2)cc1	0.2
N=c1sccn1CC(=O)NCCc1ccc(Cl)cc1Cl	0.6
O=C(CN(C(=O)c1ccc(Cl)cc1)N1C(=O)C2CCCCC2C1=O)c1ccc(Cl)cc1 (stereo unspecified)	i
CC1CCCN(c2nc3ccccc3nc2C(C#N)C(=O)OC2CCCCC2)C1 (stereo unspecified)	i
CCC(C)NC(=O)CSC1=Nc2ccccc2C2=NC(c3ccccc3)C(=O)N12 (stereo unspecified)	i
O=C(Nc1ccc2c(c1)C(=O)N(CC1CCCO1)C2=O)c1ccc(Cl)c(Cl)c1 (stereo unspecified)	i
CCCNC(=O)c1c(N)n(Cc2ccc3c(c2)OCO3)c2nc3ccccc3nc12	i
Cc1cc(C)n2nc(SCc3nnc(SCc4ccccc4)s3)nc2n1	0.2
Oc1ccccc1C1Nc2cccc3cccc(c23)N1	1.7
CCN(CC)C(=O)C1CCCN(Cc2ccccc2F)C1 (stereo unspecified)	0.2
Cc1ccc(N(CC(=O)N2CCN(C3CCCCC3)CC2)S(=O)(=O)c2cccnc2)cc1	0.2
Cc1nc(N)nc(C)c1Cc1ccccc1	i
CCCC1S/C(=N/N=C/c2ccc(C)cc2)N(Cc2ccc(OC)cc2)C1=O (stereo unspecified)	i
CCn1cc(C(=O)NC2CCCCCC2)c2cc(OC)c(OC)cc2c1=O	0.8

Screens from PubChem.
